High-throughput results (PubChem BioAssay)
NPYLR7 agonist: activates Aedes aegypti NPYLR7 receptor. activation, % at 10 µM. 0.15% of 270,000 active. HEK293T NPYLR7/Galpha15, GCaMP6s calcium fluorescence; in the data active = activation above about 40%;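 also: 0% = vehicle and 100% = reference agonist at the receptor; some compounds past the cut are filed as inactive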
NPYLR7 agonist max-min: second read-out of NPYLR7 agonist, no call of its own (marks repeat the call); activation, %; measured here: Max-Min RFU normalised activation; some inactives read as strong as hits;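 span of the calcium signal over five minutes; 0% = vehicle and 100% = native peptide agonist; compound fluorescence can raise it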
Starred values were filed as active, the others as inactive; & = joins results of further samples.

SMILES	NPYLR7 agonist	NPYLR7 agonist max-min
O=C(CN1C(=O)NC2(CCCCC2)C1=O)N1CCN(C(=O)c2cccs2)CC1	0	2
COCC(=O)N1CCN(S(=O)(=O)c2ccc3c(c2)OCCO3)CC1	-3	0
NC(=O)c1nc(-c2ccc(OCc3ccccc3)cc2)nc2c1[nH]c(=O)n2-c1ccc(F)cc1	0	-2
CCCCCC(=O)Nc1c(-c2cccc(F)c2)nc2cc(C)ccn12	-13	-7
N[C@@H](Cc1cc(-c2ccc(Cl)cc2Cl)cc(CP(=O)(O)O)c1O)C(=O)O	-13	-16
CCOC(=O)C1(C)CCCN1C(=O)c1ccccc1OC (stereo not drawn)	0	-1
Cc1ccc(-c2csc(-n3[nH]c(C)c(N=Nc4ccc(Cl)c(Cl)c4)c3=O)n2)cc1	-5	-9
COc1ccc(Cl)cc1N1CCN(C(=O)c2ccc(C(F)(F)F)cc2)C(C)C1=O (stereo not drawn)	-2	10
O=C(NCCn1cc(SCC(=O)N2CCc3ccccc32)c2ccccc21)c1ccccc1	-1	-2
COc1c(CO)cc(CO)cc(CO)c1=O	0	-2
Cc1nnc2ccc(-c3ccc(NS(C)(=O)=O)cc3)nn12	-12	-9
O=C(NCCCc1ccccn1)c1ccc(N2CCC(CO)C2)nc1 (stereo not drawn)	4	1
CC(C)(C)c1ccc(S(=O)(=O)Nc2cc(Cl)ccc2C(=O)NCc2ccccc2)cc1	0	-2
O=C1CCCN1CCC1CCCCN1Cc1nc(Cc2cccc(F)c2)no1 (stereo not drawn)	7	2
NC(=O)C1CCN(Cc2ccc(-n3cccn3)cc2)CC1	8	2
O=C(O)COc1cccc(/C=N\Nc2nc(N3CCCC3)nc(N3CCCC3)n2)c1	-4	-8
Cc1cc(C)c(OCC(=O)N2N=CCC2(O)C(F)(F)F)c(C)c1 (stereo not drawn)	-4	-3
CCc1nc2ccc(C(=O)N3CCN(C(C)=O)CC3)cn2c1N(C)Cc1ccc(N(C)C)cc1	5	-7
COc1cc(NC(=O)N2CCc3nc(Nc4ccc(C(C)C)cc4)ncc3C2)cc(OC)c1OC	-7	-9
CCOCCn1c(=O)c2c(nc3n2CCN3c2cc(C)ccc2OC)n(C)c1=O	5	1
CCc1nc(Nc2ccc(F)cc2)c2ccccc2n1	16	12
CCCc1nc(N2CCN(C(=O)Nc3cccc(Cl)c3Cl)CC2)c2c(-c3cccc(C(F)(F)F)c3)noc2n1	17	1
CCOC(=O)c1c(NC(=O)COCc2ccccc2)sc2c1CCC(C#N)(c1ccccc1)C2 (stereo not drawn)	5	2
NC(=O)NC(Cc1ccccc1)C(=O)OC/C=C/c1ccccc1 (stereo not drawn)	6	7
CCOC(=O)c1cc([C@@H](C)CCC=C(C)C)sc1NC(=O)CC1CCCC1	11	7
O=C1NCCCC1Nc1ncnc2cc(-c3ccc(Cl)cc3)sc12 (stereo not drawn)	11	11
Cc1ccnc(SCc2cc(=O)c(OC(=O)c3ccc(C(C)(C)C)cc3)co2)n1	-17	-10
Cc1ccc(CN2CCC(CNC(=O)c3c(C)noc3C)C2)cc1C (stereo not drawn)	-5	0
O=C(/C=C/c1ccccc1OC(F)F)NCc1nncn1C1CC1	0	7
O=C(NCc1c(F)cccc1F)c1cncn1-c1cccc(-c2cccc(Cl)c2)c1	4	3
CC(C)CCc1c(O)nc(SCCN(C)C)[nH]c1=O	2	-1
CCOC(=O)CCc1c(C)nc2c(-c3ccc(F)cc3)c(C)[nH]n2c1=O	-17	-24
CCOc1ccc(-c2ccc(=O)n(CCNS(=O)(=O)c3ccc(OCC)cc3)n2)cc1	-2	-3
COc1ccc(C(=O)NCCN=C2NS(=O)(=O)c3ccccc32)c(OC)c1	11	7
CCn1ncc(C(=O)N(Cc2cccnc2)Cc2cccnc2)c1C	14	10
O=C(NCc1cccnc1)c1ccc(N2CCC(NC3C4CC5CC(C4)CC3C5)CC2)cc1 (stereo not drawn)	9	5
CCOC(=O)c1nc2sc(C)c(C)c2c(=O)[nH]1	-1	-4
Cc1ccn2c(NC(=O)CC(C)CC(C)(C)C)c(-c3ccc(Cl)cc3)nc2c1 (stereo not drawn)	-3	3
CNC(=O)Cn1c(CO)cnc1SCc1ccc(Cl)cc1	2	0
Cc1ccc(Cn2nccc2NC(=O)c2ccnc(Cl)c2)s1	6	4
COc1ccc(-n2ncc(C(=O)Nc3cn[nH]c3C)c2C(F)(F)F)nn1	-1	23
CCCCn1c(=O)[nH]c(=O)c2c1nc(COC(=O)C1=COCCO1)n2CC	-5	7
Cc1ccccc1NC(=O)CC(=O)NCC[C@@H]1C[C@@H]2C=C[C@H]1C2	14	8
CCN1CCN(Cc2nc3c(c(=O)n(C)c(=O)n3C)n2CCC(C)C)CC1	1	0
CC1CC(C)CN(C(=O)c2ccc[nH]2)C1 (stereo not drawn)	2	2
Cc1cccc(OCc2ccc(-c3nc(C#N)c(NCCN(C)C)o3)o2)c1	0	0
O=C(C=Cc1cccc(O)c1)c1ccc(N2CCCC2=O)cc1	15	9
O=C(CCc1ccsc1)Nc1nccs1	5	11
CCn1ccnc1Cn1nc(-c2cccs2)c2ccccc2c1=O	-7	-7
C/C=C(\C)C(=O)N1CCN(c2nc3nccc(-c4ccc(C(C)(C)C)cc4)n3n2)CC1	11	4
COc1cccc(C(=O)NCC2Cc3cc(F)cc(F)c3O2)c1 (stereo not drawn)	31	17
CCSCC(C)NCc1ccccc1-n1ccnc1 (stereo not drawn)	-5	-10
CC(C)Cn1c(SCC(=O)c2ccc(F)c(F)c2)nnc1N1CCOCC1	0	-2
CCN1CCN(c2cc(=O)n3c(n2)SCCC3)CC1	-2	-4
CC(C)NC(=O)N(Cc1ccco1)Cc1ccccc1OS(C)(=O)=O	18	27
CCN(CC)S(=O)(=O)c1ccc(CN2C(=O)C3(CC(=O)N(Cc4ccccc4)C3=O)c3cc(OC)ccc32)cc1 (stereo not drawn)	12	3
CCCCCCNC(=O)c1cnn2c(C)cc(C)nc12	13	3
CC(=O)NCCc1ccc(C(=O)COc2cc(Cl)ccc2Cl)s1	-3	-2
NC(=O)c1cccnc1N1CCC(n2cc(Cc3ccccc3)nn2)CC1	12	9
COc1cc(Cl)c(S(=O)(=O)N2CCC(C(N)=O)CC2)cc1Cl	2	1

Among those listed so far, 4 have a tert-butyl group:
SMILES	NPYLR7 agonist	NPYLR7 agonist max-min
CC(C)(C)c1ccc(S(=O)(=O)Nc2cc(Cl)ccc2C(=O)NCc2ccccc2)cc1	0	-2
Cc1ccnc(SCc2cc(=O)c(OC(=O)c3ccc(C(C)(C)C)cc3)co2)n1	-17	-10
Cc1ccn2c(NC(=O)CC(C)CC(C)(C)C)c(-c3ccc(Cl)cc3)nc2c1 (stereo not drawn)	-3	3
C/C=C(\C)C(=O)N1CCN(c2nc3nccc(-c4ccc(C(C)(C)C)cc4)n3n2)CC1	11	4

(list continues)
SMILES	NPYLR7 agonist	NPYLR7 agonist max-min
CC1CCCCC1N(C)C(=O)c1cc2c([nH]c1=O)CCCC2=O (stereo not drawn)	1	-2
C[C@@H]1C[C@H]2[C@@H]3C[C@H](F)C4=CC(=O)C=C[C@]4(C)[C@@]3(F)[C@@H](O)C[C@]2(C)[C@@]1(O)C(=O)CO	-5	-6
O=C(Cc1csc(-c2ccc(Cl)cc2)n1)NCC1CCCO1 (stereo not drawn)	-1	1
O=C(Cc1ccc(O)c(Cl)c1)N1C[C@@H]2[C@@H]3CC[C@@H](C3)[C@@H]2C1	11	9
Cc1cccc(C(=O)N(CCCCN2C(=O)c3ccccc3C2=O)c2ccc(Cl)cc2)c1	7	3
O=C1c2ccccc2C(=O)N1C1CCCCC1N1C(=O)c2ccccc2C1=O (stereo not drawn)	-2	-3
O=C(COc1cccc(Br)c1)N=Nc1c(O)[nH]c2ccc([N+](=O)[O-])cc12	-1	-3
CCS(=O)(=O)N1CCN=C1SCc1cccc(C(F)(F)F)c1	9	9
COc1cc(NCc2cccnc2)ccc1Br	-6	-6
CC#CCN(Cc1ccco1)C(=O)c1cn(CC(=O)N(CC)CC)nn1	11	0
CN(Cc1nc(COc2ccccc2)no1)CC1(c2ccccc2)CC1(C)C (stereo not drawn)	-1	-5
Cc1ccccc1-n1ncc(C(C)NC(=O)c2nn(C)c(=O)c3ccccc23)c1C (stereo not drawn)	9&10	6&2
Cc1ccc2nc(CCCNC(=O)c3cc4n(n3)CCCN(C)C4)oc2c1	2	2
CCOc1cc(/C=N\n2c(C)nnc2-n2nc(C)cc2C)ccc1OC	-1	-3
C#CCn1c(O)c(N=NC(=O)CNC(=O)c2cccc(Br)c2)c2ccccc21	-3	-10
COc1ccc2nc(CNC(=O)CN3CCC(C)=N3)[nH]c2c1	24	17
COc1ccc(-c2nc(CSc3nc4c(c(=O)[nH]3)CCC4)c(C)o2)cc1	5	0
COCCN(CC(=O)N1N=C(c2cccs2)CC1c1cccn1C)C(=O)NC(C)(C)C (stereo not drawn)	5	3
COCCNC(=O)C(NC(=O)c1ccccc1Cl)C1CCN(C(=O)c2ccco2)CC1 (stereo not drawn)	3	6
COc1ccc(CCN(Cc2ccc(C)o2)C(=O)CN(CC2CCCO2)S(=O)(=O)c2ccc(Cl)cc2)cc1OC (stereo not drawn)	2	16
CCCNC(=O)CSc1nc(=O)n2cc(C)ccc2n1	9	5
C=CCNC(=O)C(NC(=O)c1cccc(C)c1)C1CCN(S(=O)(=O)C(C)C)CC1 (stereo not drawn)	-4	3
O=C(c1cccc(Cn2cccn2)c1)N1CCC(Nc2ncccn2)CC1	2	0
O=C(NCc1ccccn1)c1ccc(SCc2ccccc2)nc1	-6	-11
N#CCCN(NC(=O)c1ccccc1)C1=NS(=O)(=O)c2ccccc21	-18	-22
CC(C)N1CCNC(=O)C1CC(=O)NCC1(Cn2cccn2)CC1 (stereo not drawn)	7	5
COc1cccc(NC(=O)N2CCCC(c3nnc(CC(C)(C)C)o3)C2)c1 (stereo not drawn)	-4	2
C[C@@]12C(=O)Nc3ccccc3[C@@H]1[C@@H](C(N)=O)CN2C(=O)c1ccccc1	3	17
O=C(CN1CCCC1CO)N1CCN(C(=O)C2CC2)CC1 (stereo not drawn)	7	2
C/C(=C/C(=O)N1CCN(c2cnccn2)CC1)C12CC3CC(CC(C3)C1)C2	1	3
Cc1noc(-c2ccc(C(C)(C)C)cc2)c1C(=O)NC(C)CCc1ccccc1 (stereo not drawn)	-1	6
COc1ccccc1N1CCN(C(=O)Nc2n[nH]c(Cc3ccccc3)n2)CC1	0	2
COCCCN(CC(=O)N1CCc2sccc2C1COc1ccccc1F)C(=O)c1cccc(OC)c1 (stereo not drawn)	-6	-2
C=CCN(Cc1csc(COc2ccccc2C(C)C)n1)C(C)=O	-1	-13
Fc1ccc(C2CCCN2Cc2cc(-c3ccccn3)no2)cc1 (stereo not drawn)	2	2
COc1cn(CC(=O)NCc2ccc3c(c2)OCO3)c(CSc2nccc(C)n2)cc1=O	-5	-10
O=C(CSc1ccc(-c2ccc(-n3ccnc3)cc2)nn1)Nc1nccs1	-9	-13
CCn1ncnc1CN1C[C@H](N)C[C@H]1C(=O)NC(C)C	0	-4
CC(=O)Nc1cccc(-c2ccnc3c2CC(C)(C(=O)NC(C)C)O3)c1 (stereo not drawn)	-15	-15
C=CCNC(=O)C(NC(=O)c1cccs1)C1CCN(C(=O)C2CC2)CC1 (stereo not drawn)	-1	6
CCCC1CN(CC(C)(C)CN(C)C)C(=O)c2cccnc2O1 (stereo not drawn)	8	22
CCc1nc2ccc(C(=O)NCc3ccc(OC)cc3)cn2c1N(C)CCC(C)C	-4	-10
COc1ccc(NC(=O)Cn2nc(C)c3cnn(-c4ccc(C)c(C)c4)c3c2=O)cc1OC	8	3
CCOc1ccc(-c2noc(CCC(=O)NCc3c(C)cc(C)[nH]c3=O)n2)cc1	7	5
CC(C)NC(=S)Nc1ccccn1	0	-2
C=CCOC1C[C@](OCc2cccc(F)c2)(C(=O)NCCN2CCOCC2)C[C@H]2OC(C)(C)O[C@@H]12 (stereo partly drawn)	3	2
O=S(=O)(c1ccccc1C(F)(F)F)N1CCN(c2nc3nccc(-c4ccc(Cl)c(Cl)c4)n3n2)CC1	3	0
CN(Cc1cc2n(n1)CCNC2)Cc1nc2ccc(F)cc2[nH]1	17	12
CC(C)C(=O)N1CCC1(C)C(=O)Nc1sccc1C#N (stereo not drawn)	6	3
O=[N+]([O-])c1c2n(c(C3CCCC3)nc1=S)CCCCC2	-3	-3
CCOc1ccccc1NC(=O)N(CCOC)CC(=O)Nc1cc(C(C)(C)C)nn1-c1ccc(Cl)c(Cl)c1	9	12
CCOC(=O)C1(Cc2cccc(OC)c2)CCN(CC2=Cc3cc(OC)ccc3OC2)CC1	-1	-4
Cc1cc(N2CCOCC2)nc(Nc2ccc(NS(=O)(=O)c3cc(C(C)C)ccc3C)cc2)n1	11	6
CCC(=O)N(CCOC)Cc1cc(NC(=O)c2ccccc2Cl)ccc1N(C)C	-4	2
Cc1cc(C)n2[nH]c(=O)c([N+](=O)[O-])c2n1	0	-2

Whole records, looked up by structure. Order of values: NPYLR7 agonist	NPYLR7 agonist max-min
`CCOC(=O)C1(Cc2cccc(OC)c2)CCN(CC2=Cc3cc(OC)ccc3OC2)CC1` as listed: -1	-4
`CC(C)C(=O)N1CCC1(C)C(=O)Nc1sccc1C#N` (stereo not drawn) as listed: 6	3
`Cc1cc(N2CCOCC2)nc(Nc2ccc(NS(=O)(=O)c3cc(C(C)C)ccc3C)cc2)n1` as listed: 11	6
`Cc1cc(C)n2[nH]c(=O)c([N+](=O)[O-])c2n1` as listed: 0	-2

Quoted from the listing:
For NPYLR7 agonist max-min, CCC(=O)N(CCOC)Cc1cc(NC(=O)c2ccccc2Cl)ccc1N(C)C has the entry 2
For NPYLR7 agonist, O=[N+]([O-])c1c2n(c(C3CCCC3)nc1=S)CCCCC2 has the entry -3

A portion of the library; count on the stated rates, not on these rows.
